# Compound activity (PubChem BioAssay)
# Cruzain noTriton: cruzain (T. cruzi) inhibition without detergent. purified cruzain, Z-FR-AMC fluorescence, no detergent. Potency, µM, without a hit: max response, negative = inhibition, most hits filed as inhibitors. AID 1476. 2.3% of 200,000 active. P25779;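 further: plate controls were enzyme without inhibitor for no effect and buffer without enzyme for full effect; nearly all actives have a fitted effect of over 40% in size; top concentration of the series not given in the record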
# Target sequence (P25779 123-467 limits assumed): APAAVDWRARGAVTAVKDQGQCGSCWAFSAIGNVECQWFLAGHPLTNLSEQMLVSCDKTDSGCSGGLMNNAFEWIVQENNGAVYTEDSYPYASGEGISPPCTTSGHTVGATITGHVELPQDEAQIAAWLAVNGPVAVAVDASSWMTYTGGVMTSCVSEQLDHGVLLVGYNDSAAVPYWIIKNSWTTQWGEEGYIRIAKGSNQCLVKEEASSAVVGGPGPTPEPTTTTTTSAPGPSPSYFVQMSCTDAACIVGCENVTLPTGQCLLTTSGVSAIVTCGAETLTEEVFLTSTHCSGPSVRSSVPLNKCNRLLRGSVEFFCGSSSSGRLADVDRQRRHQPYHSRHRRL
#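 Purified cruzain at 1.5 nM, pre-incubated 15 min with compound at room temperature in 100 mM sodium acetate pH 5.5, 5 mM DTT, 0.00005% Triton X-100. Reaction started with 2 uM Z-FR-AMC; AMC fluorescence increase over 60 s gives rate.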
# RE007 growth inh: less growth of the S. pombe RE007 Vpr strain. S. pombe RE007 Vpr strain, BacTiter-Glo ATP luminescence, 24 h; control for the full effect not named in the record. 0.21% of 360,000 active. Potency, µM (doses to about 92.2 µM), for the others: top-dose activity change, negative = less growth; active = well fitted falling curve with a large enough effect; inconclusive = small, poorly fitted or top-dose-only effect; inactive = no such curve, though single readings can be large or run the other way;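 further: on the % scale 0 is the no-effect control and ±100 the full control effect; nearly all actives have a fitted effect of over 50% in size; the assay follows cell death caused by Vpr and the record does not say whether a fall means rescue or toxicity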
#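 Fission yeast strain RE007, carrying one chromosomally integrated HIV-1 vpr copy, was seeded at OD 0.01 in PMG+AL medium with 23 nL pinned compound. After 24 h at 30 °C and 99% humidity, viability was read by BacTiter-Glo luminescence.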
# Lassa entry inh: blocks Lassa virus binding to or entry into cells; Potency, µM (highest dose often 37.9 µM), for inactives: at the top dose activity change, negative = inhibition, most hits filed as inhibitors; 1.2% of 300,000 active; Lassa virus pseudotype entry inhibition, cell reporter; control for the full effect not named in the record; active means well fitted inhibition curve with a large enough effect; inconclusive means small, poorly fitted or top-dose-only effect, or effect the other way; inactive means flat fitted curve, though single readings scatter; tested in HEK293 cells; further: on the % scale 0 is the no-effect control and ±100 the full control effect; nearly all actives have a fitted effect of over 50% in size; luciferase read-out
# Marburg entry inh: Marburg virus entry inhibition; Potency, µM (doses to about 37.8 µM), inactives show at the highest dose activity change, negative = inhibition, usual class: inhibitors; Marburg virus pseudotyped entry inhibition, cell reporter; control for the full effect not named in the record; about a third of the inactives were read at about 46 µM; 1.8% of 300,000 active; active = well fitted inhibition curve with a large enough effect; inconclusive = small, poorly fitted or top-dose-only effect, or effect the other way; inactive = flat fitted curve, though single readings scatter; tested in HEK293 cells; about a fifth of its hits are not listed in these tables; further: on the % scale 0 is the no-effect control and ±100 the full control effect; luciferase read-out
# Cruzain inh Det: cruzain (T. cruzi) inhibition with detergent; P25779; 0.43% of 200,000 active; purified cruzain, Z-FR-AMC fluorescence, 0.01% Triton; Potency, µM, inactives show max response, negative = inhibition, usual class: inhibitors;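 further: plate controls were neutral wells for no effect and buffer without enzyme for full effect; nearly all actives have a fitted effect of over 40% in size; top concentration of the series not given in the record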
#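 Cruzain (1.5 nM) preincubated 15 min at RT with compound in 100 mM sodium acetate pH 5.5, 5 mM DTT, 0.01% Triton X-100. Reaction started with 2 uM Z-FR-AMC; AMC fluorescence (ex 360/em 450 nm) change over 60 s gave rate.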
# SARS PLP yeast: inhibitors of SARS-CoV papain-like protease in yeast | Potency, µM (titrated, usually from 32.9 µM), without a hit: at the top dose activity, positive = growth rescue | 0.19% of 330,000 active | S. cerevisiae expressing SARS-CoV PLpro, growth rescue; control for the full effect not named in the record; active means well fitted rising curve with a large enough effect; inconclusive means small, poorly fitted or top-dose-only effect; inactive means no such curve, though single readings can be large or run the other way; further: 0% is about no effect; nearly all actives have a fitted effect of over 55% in size; growth read by luminescence after 48 h
# NS1 inh: inhibitors of influenza NS1 protein function; S. cerevisiae slowed by influenza A NS1, growth recovery by OD600; Potency, µM (top dose mostly 46.1 µM), for inactives: at the highest dose activity, positive = more growth; 0.4% of 270,000 active; active means well fitted rising curve with a large enough effect; inconclusive means small, poorly fitted or top-dose-only effect; inactive means no such curve, though single readings can be large or run the other way; further: nearly all actives have a fitted effect of over 50% in size
#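 Growth recovery, yeast-based: influenza A NS1 expressed in S. cerevisiae causes slow growth, and suppressors are detected by OD600. The parent strain without NS1 is used as positive control.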
# StopGo reporter: lowers the luciferase signal of an FMDV 2A StopGo reporter; 1.2% of 410,000 active; AID 1159524; human cells with a luciferase reporter of 2A StopGo recoding; control for the full effect not named in the record; Potency, µM (top dose mostly 57.9 µM), without a hit: top-dose signal change, negative = less light; active = well fitted falling curve with a large enough effect; inconclusive = small, poorly fitted or top-dose-only effect; inactive = no such curve, though single readings can be large or run the other way; tested in HEK293T cells; further: on the % scale 0 is the no-effect control and ±100 the full control effect; nearly all actives have a fitted effect of over 45% in size; luciferase light after 4 h
# Numbers without * were called inactive; ? = inconclusive; · = no result given; & = joins results of further samples; [ ] = remark or other dose. Unless noted, the call rests on the fitted dose curve; in most records, active means well fitted curve in the direction sought with a large enough effect; inconclusive means small, poorly fitted or top-dose-only effect, or another doubt; inactive means no such curve, though single readings can be large; an effect the other way counts as inactive or inconclusive. Potency means the concentration at half of the fitted maximal effect. Hits appear at their usual frequency, and some 4.7% of all compounds hit somewhere here.
SMILES,Cruzain noTriton,RE007 growth inh,Lassa entry inh,Marburg entry inh,Cruzain inh Det,SARS PLP yeast,NS1 inh,StopGo reporter
C[C@H]1CCC[C@]2(O[C@@H](CCO)C[C@H](O)[C@H]2O)O1,-8%,12%,12%,-21%,1.0%,8%,2%,0%
Cc1cc([N+](=O)[O-])c(-c2ccc(/C=N/n3cnnc3)o2)cc1Cl,-7%,15%,2%,-3%,-5.4%,0%,-3%,1%
Cc1ccc(-c2cc(C(=O)Nc3ccc(S(=O)(=O)Nc4nc(C)cc(C)n4)cc3)c3ccccc3n2)cc1,?,10%,4%,18%,-9.4%,-2%,14µM*,0%
COc1cc(C(=O)NCC(c2cccnc2)N2CCN(c3ccc(F)cc3)CC2)cc(OC)c1OC (stereo unspecified),?,7%,?,-7%&-7%[46.1 µM],-12%,1%,·,-11%&-17%
Cc1cc(/C(O)=C2\C(=O)C(=O)N(CCN(C)C)C2c2ccncc2)ccc1OCc1ccccc1 (stereo unspecified),-3%,2%,0%,3%,-5.8%,-24%,-4%,-8%
Cc1cc(NC(=O)CCC(=O)N(Cc2cccs2)C(C)(C)C(=O)NC2CCCCC2)no1,·,1%,-9%,-9%[46.1 µM],·,7%,-6%,-6%
Cc1cc(C)nc(NC2=NCC(=O)N2CCc2c[nH]c3ccccc23)n1,-19%,?,1%,?,-0.8%,5%,-3%,-16%
Cn1ncc2c(NNC(=O)c3ccccc3Cl)ncnc21,0%,-4%,-9%,19%,1.2%,10%,-4%,-13%
COc1ccc(C(=S)N2CCOCC2)cc1OS(=O)(=O)c1ccccc1[N+](=O)[O-],1%,8%,1%,16%[46.1 µM],-3.0%,-3%,-11%,-2%
Cc1ccc(-c2nnc(NC3CCCCC3)c3ccccc23)cc1S(=O)(=O)N1CCN(C)CC1,-17%,13%,?,?,-1.9%,?,-10%,·
CCn1ncc([N+](=O)[O-])c1C(=O)Nc1c(C)cccc1C,·,6%,·,·,·,-4%,1%,9%
O=C(CNS(=O)(=O)c1ccccc1)NCC(=O)OCc1ccc(C(=O)c2ccccc2)cc1,-2%,-3%,-10%,4%,-9.8%,1%,-14%,-10%
CCOC(=O)c1c(C)[nH]c(C(=O)COC(=O)c2ccc(O)cc2O)c1C,·,-9%,·,·,·,0%,4%,-21%
COc1ccccc1CCNC(=O)Cn1ccc2cc(S(=O)(=O)N3CCCCC3)ccc21,-18%,·,-24%[46.1 µM],·,-7.0%,·,·,1%
O=C(Nc1ccc(F)cc1)Nc1ccc(N2CCOCC2)c2nonc12,·,-18%,-24%,?,·,0%,0%,41%[activator]
COc1ccc(Cl)cc1-n1nnc(-c2nsc(NC(=O)c3ccccc3Cl)n2)c1C,?,·,2%[46.1 µM],-29%[46.1 µM],-5.8%,·,·,3%
Cc1ccc(NC(=O)c2ccccc2Cl)cc1-n1cnnn1,·,-19%,15%,?,·,1%,0%,10%
Oc1ccccc1C=NN=Cc1ccccc1Cl,·,10%,?,-3%,·,·,·,0%
CNC(=S)/N=C(\Nc1ccc(C)cc1)c1ccccc1,·,18%,-18%,6%[46.1 µM],·,6%,0%,-5%
O=C1/C(=C/c2cccnc2)Oc2cc(OS(=O)(=O)c3ccccc3)ccc21,?,-7%,-14%,?,0.5%,1%,?,?
O=c1nc(/C=C/c2ccc(O)c(O)c2)oc2ccccc12,·,-22%,-29%,?,·,0%,-1%,-9%
CCOC(=O)c1cc(-c2ccc(F)cc2)n(CCC(=O)NC2CCC(C)CC2)c1C (stereo unspecified),5%,·,0%[46.1 µM],·,-2.8%,·,·,-16%
COc1cc2nc(NCC3CCCO3)n3nc(-c4cccnc4)nc3c2cc1OC (stereo unspecified),?,-9%,-21%,-27%,-3.6%,8%,-37%,-13%
CC(C)COP(=O)(OCC(C)C)C(Nc1ccccc1)c1ccc2c(c1)OCO2 (stereo unspecified),14%,18%,-23%,-28%,-6.2%,-1%,-41%,-28%
OC(COCc1ccc(Cl)cc1)CN1CCN(c2ccccn2)CC1 (stereo unspecified),-2%,-14%,1%,10%,-2.5%,14%,6%,-6%
O=C(CCc1nc(-c2ccc(Cl)cc2)no1)NC1CCCCC1,·,-11%,-19%,14%,·,4%,-8%,-28%
O=C(NCC1CCCO1)C1CC(=O)N(c2cccc(Cl)c2)C1 (stereo unspecified),·,-16%,-18%,13%[46.1 µM],·,-1%,2%,26%
Cc1ccc(Nc2c(-c3ccc(N4CCOCC4)cc3)nc3cccc(C)n23)cc1,-5%,·,11%[46.1 µM],?,-0.6%,·,·,-1%
Cc1ccc2nc(CN3CCN(S(=O)(=O)c4ccccc4)CC3)oc2c1,-5%,·,-10%[46.1 µM],·,-0.7%,·,·,-14%
N=C1SCC(=O)N1Cc1ccccc1,·,18%,0%,2%[46.1 µM],·,-2%,·,-7%
CN(c1ccccc1)S(=O)(=O)c1ccc2ccccc2c1,·,-5%,?,?,·,?,9%,-5%
O=C(NC1CCCC1)c1c[nH]c2ccc(S(=O)(=O)Nc3cccc(C(F)(F)F)c3)cc2c1=O,?,·,-5%[46.1 µM],12%[46.1 µM],-13%,·,·,13%
Cc1cc(C(=O)OCC(=O)c2ccc(Cl)c([N+](=O)[O-])c2)c2cccc(C)c2n1,-3%,-13%,1%,?,-6.8%,-2%,-8%,-23%
COC(=O)c1ccc(S(=O)(=O)NCc2ccccn2)n1C,·,-9%,·,·,·,-1%,1%,-8%
COc1ccc(NC(=O)CSc2ncc(-c3ccc(F)cc3)n2Cc2ccco2)cc1,25%,12%,?,?,-8.8%,-3%,6%,?
CC(=O)c1ccc2c3c(cccc13)C(=O)N(c1c(C)nn(C)c1C)C2=O,-3%,3%,-3%,-30%,0.3%,1%,7%,0%
Fc1ccccc1Cn1nnc2c(NCCc3ccccn3)ncnc21,5%,9%,17%,-7%,9.9%,-3%,-16%,-7%
CC(C)=CC(=O)Nc1nc2ccc([N+](=O)[O-])cc2s1,·,0%,26%,?,·,-2%,-4%,32%[activator]
CNC(=S)N(Cc1ccccc1)Cc1cccnc1,·,22%,24%,-14%,·,0%,-4%,-16%
CCCn1nnnc1NC(=O)COc1ccc(Cl)cc1C,6%,-24%,-29%,?,-1.1%,5%,-99%,3%

# Of the compounds above, 6 contain fluorine.
SMILES,Cruzain noTriton,RE007 growth inh,Lassa entry inh,Marburg entry inh,Cruzain inh Det,SARS PLP yeast,NS1 inh,StopGo reporter
COc1cc(C(=O)NCC(c2cccnc2)N2CCN(c3ccc(F)cc3)CC2)cc(OC)c1OC (stereo unspecified),?,7%,?,-7%&-7%[46.1 µM],-12%,1%,·,-11%&-17%
O=C(Nc1ccc(F)cc1)Nc1ccc(N2CCOCC2)c2nonc12,·,-18%,-24%,?,·,0%,0%,41%[activator]
CCOC(=O)c1cc(-c2ccc(F)cc2)n(CCC(=O)NC2CCC(C)CC2)c1C (stereo unspecified),5%,·,0%[46.1 µM],·,-2.8%,·,·,-16%
O=C(NC1CCCC1)c1c[nH]c2ccc(S(=O)(=O)Nc3cccc(C(F)(F)F)c3)cc2c1=O,?,·,-5%[46.1 µM],12%[46.1 µM],-13%,·,·,13%
COc1ccc(NC(=O)CSc2ncc(-c3ccc(F)cc3)n2Cc2ccco2)cc1,25%,12%,?,?,-8.8%,-3%,6%,?
Fc1ccccc1Cn1nnc2c(NCCc3ccccn3)ncnc21,5%,9%,17%,-7%,9.9%,-3%,-16%,-7%

# Continued.
SMILES,Cruzain noTriton,RE007 growth inh,Lassa entry inh,Marburg entry inh,Cruzain inh Det,SARS PLP yeast,NS1 inh,StopGo reporter
CCCc1nc(SCC(=O)Nc2cc(C)on2)c2c(=O)n(C)c(=O)n(C)c2n1,-13%,0%,·,·,2.2%,1%,-5%,-17%
O=C(O)Cn1cc(/C=C/[N+](=O)[O-])c2ccccc21,·,2%,20%,1%[46.1 µM],·,-1%,·,-9%
COc1ccccc1CNC(=O)Cn1c(=O)ccc2cc(S(=O)(=O)N3CCCC3)ccc21,-3%,·,-1%[46.1 µM],·,-1.4%,·,·,-18%
COc1ccc(NC(=O)c2cc(CN3C(=O)c4ccccc4C3=O)ccc2OC)cn1,11%,4%,-15%,?,-4.3%,-2%,0%,-25%
CCOc1ccc2c(c1)-c1c(ssc1=S)C(C)(C)N2C(=O)c1ccco1,-26%,-5%,?,5.2µM*,-6.3%,1%,30%,0%
CCOC(=O)c1ccc2[nH]c3ccccc3c2c1,·,-17%,·,·,·,-6%,-1%,45%[activator]
NC(=O)C1CCN(S(=O)(=O)c2cccc(S(=O)(=O)N3CCCCC3)c2)CC1,9%,12%,-9%,0%[46.1 µM],1.8%,21%,-3%,24%
Cc1ccc2cccc(NC(=O)c3cccc4c(Cl)cccc34)c2n1,0%,·,11%[46.1 µM],16%[46.1 µM],1.2%,·,·,3%
O=C(NC1CCN(C(=S)NCc2ccco2)CC1)C12CC3CC(CC(C3)C1)C2,6%,12%,?,-24%,5.0%,3%,-1%,·
O=C(O)C1=C(C(=O)O)C2C=CC1C2,·,2%,11%[46.1 µM],2%[46.1 µM],·,·,·,0%
O=C(NCCCN1CCCC1=O)NC1CCCCC1,5%,10%,15%,19%,4.1%,5%,-3%,17%
C=CCN(C(=O)Nc1ccccc1)C1CC(=O)N(c2ccc(OC)cc2)C1=O (stereo unspecified),3%,-8%,-6%,0%,3.5%,5%,-4%,-11%
Cc1nc2nc(CSc3ccc(Cl)cc3)cc(=O)n2[nH]1,3%,9%,-3%,18%,0.0%,-2%,-16%,-5%
O=C(Nc1cccnc1)c1cc(-c2ccco2)on1,-17%,-5%,1%,5%,2.9%,2%,6%,0%
O=C(N/N=C/c1ccc2cccnc2c1)c1ccco1,·,2%,?,?,·,-4%,·,-3%
CCOC(=O)C1=C(C)N=C2SCCC(=O)N2C1c1ccc(OCc2ccccc2)c(OC)c1 (stereo unspecified),?,·,-24%[46.1 µM],?,-1.1%,·,·,-11%
